HPGD inh = blocks human HPGD enzyme activity; P15428; hit rate 4.3% among 150,000; Potency, µM, for the others: top-dose activity change, negative = inhibition, actives largely listed as inhibitors; purified HPGD, NADH fluorescence kinetic, PGE2 substrate; active = well fitted inhibition curve with a large enough effect (not every such curve was filed as active); inconclusive = small, poorly fitted or top-dose-only effect, or another doubt; inactive = no such curve, though single readings can be large or run the other way;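 further: top concentration of the series not given in the record; plate controls included wells without enzyme; inactives centre near -10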
Target sequence (P15428 whole entry, looked up): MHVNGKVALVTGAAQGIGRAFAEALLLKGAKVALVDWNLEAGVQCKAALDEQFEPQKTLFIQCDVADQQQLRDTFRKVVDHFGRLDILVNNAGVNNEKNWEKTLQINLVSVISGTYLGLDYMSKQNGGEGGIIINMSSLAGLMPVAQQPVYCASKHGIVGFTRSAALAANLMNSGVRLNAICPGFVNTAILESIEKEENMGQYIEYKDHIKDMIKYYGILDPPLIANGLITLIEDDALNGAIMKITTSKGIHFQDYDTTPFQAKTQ
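20 nM HPGD preincubated 15 min at room temperature with compound in 50 mM Tris-HCl pH 8, 0.01% Tween 20. Started with 1 mM NAD+ and 30 uM prostaglandin E2; NADH fluorescence (360/450 nm) read 5 times over 30-s intervals, last minus first.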
Active calls of the source: *; u = inconclusive; [ ] = remark or other dose. On the % scale 0 is the no-effect control and ±100 the full control effect; potency means the concentration at half of the fitted maximal effect.

HPGD inh	SMILES
-10%	Cn1c(NC(=O)C2c3ccccc3Oc3ccccc32)cc(=O)n(C)c1=O
u	Fc1ccc2nc(Nc3nc4c(F)cccc4s3)sc2c1
-21%	COc1cccc(NC(=O)CSc2nc3c(c(-c4ccco4)c2C#N)CCCC3)c1
-8%	CCC(=O)Nc1ccc(C(=O)Nc2cccc(OC)c2)cc1
-2%	CCOc1ccc(N2CC(C(=O)NCCCN3CCOCC3)CC2=O)cc1 (stereo not given)
-8%	Cc1nc(N)sc1-c1csc(Nc2ccccc2)n1
1%	CC(=O)C(Sc1nc(N2CCOCC2)nc(N2CCOCC2)n1)C(=O)Nc1ccccc1 (stereo not given)
5%	CCCCC(CCC(=O)Nc1ccc(C(=O)OCC)cc1)C(=O)O (stereo not given)
-5%	O=C(Nc1ccsc1C(=O)NC1CC1)c1ccccc1
3%	CC(NC(=O)/C(C#N)=C/c1ccc(Cl)c([N+](=O)[O-])c1)c1ccccc1 (stereo not given)
u	Cc1ccc2nc3c(cc2c1)c(NC(=O)c1ccccn1)nn3CC(C)C
-7%	COc1cc(OC)c2c(c1)OC1Cc3cc(OC)c(OC)cc3C2O1 (stereo not given)
11%	O=C(CN(c1ccc(F)cc1)S(=O)(=O)c1ccc2c(c1)OCCO2)NCc1ccccc1
-21%	CC12CCC(c3c(C(=O)Nc4nccs4)nn(-c4ccccc4)c31)C2(C)C (stereo not given)
-29%	CC(C)(C)c1ccc(-c2nc(C=O)c3ccccn23)cc1
56%[activator]	Cc1ccc(C)c(NC(=O)/C(C#N)=C/c2cn(CC(=O)NCc3ccco3)c3ccccc23)c1
-9%	COc1ccc(CSc2nnnn2-c2ccccc2)cc1
-4%	CCC(=O)Nc1ccc(NC(=O)CSc2nnnn2CC)cc1C
-17%	COc1ccc(/C=C2\N=C3CCCCCN3C2=O)cc1OC
-8%	Cc1csc(NC(=O)CSc2nnc(-c3ccc(S(=O)(=O)N4CCCC4)cc3)o2)n1
-24%	O=C1CCCc2c1cc(C(=O)NCc1ccco1)c(=O)n2-c1ccc(Cl)cc1
-9%	Cc1cc(O)cc(=O)o1
-4%	Cc1ccc(S(=O)(=O)NCC(=O)N/N=C/c2ccc(Cl)cc2Cl)cc1
-18%	Cc1ccc(N=Cc2cc3c(cc2O)OC(N)=C(C#N)C3c2ccccc2)cc1 (stereo not given)
-14%	OCCN1CCN(CC/C=C2/c3ccccc3Sc3ccc(C(F)(F)F)cc32)CC1
-2%	CCCCn1c(SCc2cccnc2)nc2c1c(=O)n(C)c(=O)n2C
-8%	CCCCOC(=O)C(C)Nc1n[nH]c(=O)[nH]c1=O (stereo not given)
-21%	COc1ccc(N2CCN(C(=O)c3ccc(C(C)(C)C)cc3)CC2)cc1
-20%	COc1cccc(C2Nc3cc(Cl)c(S(N)(=O)=O)cc3S(=O)(=O)N2)c1 (stereo not given)
-8%	COc1ccc(OC)c(NC(=O)CSc2nnc(Cn3c(=O)sc4ccccc43)n2C)c1
-1%	O=C(Nc1nccs1)C1Cc2ccccc2CN1S(=O)(=O)c1ccc(F)cc1 (stereo not given)
-11%	Cc1sc2ncn(CCC(=O)O)c(=O)c2c1C
-4%	Cc1ccc(OCc2nnc(SCCN3CCOCC3)n2C)cc1
-6%	CCCOc1ccc(/C=C/C(=O)Nc2ccc([N+](=O)[O-])cc2C)cc1OC
-11%	Cc1cccc(N/N=C2/COC(C)(C)CC2=O)c1
-6%	CCOC(=O)/C(C(N)=NCCO)=C(/O)c1ccccc1
1%	CS(=O)(=O)N(CC(=O)NC1CCCCCC1)Cc1ccccc1
-7%	COC(=O)[C@@H]1C[C@@]2(O)[C@@H](O)[C@@H](O)[C@@H](O)C[C@H]2N1Cc1cc(OC)cc(OC)c1
-6%	COc1ccccc1NS(=O)(=O)c1ccc2c(c1)n(C)c(=O)n2C
-3%	O=C(CNCc1ccc(F)cc1)Nc1ccccc1-c1ccccc1
2.2µM*	Nc1ccc2c(c1)C(=O)C(=O)c1ccccc1-2
-5%	Cc1cc(=O)oc(C)c1C(=O)NCCCN1C(C)CCCC1C (stereo not given)
-9%	Cc1nnc(SCC(=O)NC(=O)NC(C)(C)C)n1N
u	C=CCNC(=O)c1ccccc1NC(=O)c1ccc(Cl)c(S(=O)(=O)Nc2cc(C)ccc2C)c1
u	NC(=O)c1c(NC(=O)CN2CCCC2)sc2c1CCCC2
u	O=C(O)/C=C/C(=O)Nc1ccccc1SC(F)(F)F
-2%	COc1c2c(cc3c1C(CC(O)C(C)C)N(C)CC3)OCO2 (stereo not given)
-7%	COC(=O)c1ccc(COC(=O)CNC(=O)c2ccco2)cc1
-8%	Cc1ccc(C(C)(C)C)cc1
-8%	Cc1ccc(C(=O)Nc2ccc(C)c(S(=O)(=O)N(C)C)c2)s1
-7%	CCCCc1nc2c(c3c1C[C@H](C)OC3)CN(C(=O)N[C@@H](C)c1ccccc1)CC2
-4%	Cn1c(=O)oc2cc(S(=O)(=O)NCCC(=O)N3CCc4ccccc4C3)ccc21
-13%	O=C(c1ccc(Oc2ccc(C(F)(F)F)cn2)cc1)N1CCN(c2ccccc2)CC1
4%	COCC(C)NCc1cccc(OC)c1OC (stereo not given)
-17%	O=C(NCCC1=CCCCC1)c1ccc([N+](=O)[O-])cc1
u	CCNC(=S)N/N=C/c1ccc(-c2ccccc2)o1

Continued.
HPGD inh	SMILES
-8%	COc1ccc(CNC(=O)COC(=O)[C@H](Cc2c[nH]c3ccccc23)NC(=O)c2cccs2)cc1
u	O=C(Nc1ccccc1C(=O)O)c1ccc(Br)o1
u	COc1ccc(-c2ccc(-c3noc(-c4ccccc4OC)n3)c(OC)n2)cc1
-12%	O=C(N1CCN(c2cccc(Cl)c2)CC1)C1(S(=O)(=O)c2ccc(Cl)cc2)CC1
u	CCOC(=O)N1CCN(c2ccc(C(=O)c3cccc(F)c3)cc2)CC1
u	CCCCCCn1cnc2c(c1=O)c1nc3ccccc3nc1n2Cc1cccs1
-19%	O=c1c(/C=C(\O)c2ccccc2)nc2ccccc2n1-c1ccccc1
-9%	Cc1c(N=CC=Nc2c(C)n(C)n(-c3ccccc3)c2=O)c(=O)n(-c2ccccc2)n1C
5%	N=c1ccn2c(n1)O[C@H]1[C@@H](O)[C@@H](CO)O[C@H]12
u	CC(=O)Nc1ccc(C(=O)CSc2nc3ccccc3n2CC(=O)N2CCCC2)cc1
-5%	O=C(NCc1ccc(Cl)cc1)C1=Cc2cc(Cl)ccc2OC1
-3%	O=C(N/N=C/c1ccncc1)c1nc(-c2ccccc2)n2c1CCCCC2
-8%	CCOC(=O)N1CCN(C(=O)Cn2ncc3ccccc32)CC1
-6%	O=[N+]([O-])c1cccc(-c2nc(NCc3ccccc3)c3ccccc3n2)c1
25µM*	COc1ccc(NC(=S)Nc2ccc(OC)cc2OC)c(OC)c1
u	COCC(C)NC(=O)c1ccc(-n2nc(C(F)(F)F)cc2-c2cccs2)cc1 (stereo not given)
-4%	COc1ccccc1C(=O)Nc1ccccn1
u	Cc1onc(-c2ccccc2)c1C(=O)N/N=C/c1ccc([N+](=O)[O-])s1
-7%	COc1ccc2nc(SCC(=O)Nc3ccc4sc(C)nc4c3)c(C#N)cc2c1
u	CCCCn1c(=O)[nH]c(=O)c2c1nc(-c1ccc(-c3ccccc3Br)o1)n2CCOC
1%	Cc1[nH]cnc1CSCc1ccc(F)cc1
-10%	CCOC1OC(=O)C(Cl)=C1Nc1ccccc1C (stereo not given)
28µM*	CCN=C1NN=C(c2ccc(C)cc2)CS1
-8%	CCCN1C2=NS(=O)(=O)CCN2c2ccccc21

Exported as comma-separated lines: part of the list above.
structure,HPGD inh
O=C(N1CCN(c2cccc(Cl)c2)CC1)C1(S(=O)(=O)c2ccc(Cl)cc2)CC1,-12%
CCOC(=O)N1CCN(c2ccc(C(=O)c3cccc(F)c3)cc2)CC1,u
CCCCCCn1cnc2c(c1=O)c1nc3ccccc3nc1n2Cc1cccs1,u
O=c1c(/C=C(\O)c2ccccc2)nc2ccccc2n1-c1ccccc1,-19%
Cc1c(N=CC=Nc2c(C)n(C)n(-c3ccccc3)c2=O)c(=O)n(-c2ccccc2)n1C,-9%
N=c1ccn2c(n1)O[C@H]1[C@@H](O)[C@@H](CO)O[C@H]12,5%

(list continues)
HPGD inh	SMILES
-4%	Cn1c(-n2c(CCN3C(=O)c4ccccc4C3=O)nc3ccccc3c2=O)nc2ccccc21
u	O=C(CCN1CCOCC1)Nc1ccc2c(c1)CCC2
-3%	COc1cccc(CC(=O)N2CCc3nc(COc4ccccc4)c4c(c3C2)CO[C@@H](C)C4)c1
-8%	O=C1CC(c2cccnc2)c2cc3c(cc2N1)OCO3 (stereo not given)
u	Cc1ccccc1NC(=O)c1cnc2ccccn2c1=O
4%	Cn1ncc(Br)c1C(=O)N1CCOCC1
-6%	COc1ccc(N2C(=O)C(Cl)=C(N3CCCC3)C2=O)cc1
-4%	CCCc1nc(SCC(=O)Nc2cc(Cl)ccc2OC)c2c(=O)n(C)c(=O)n(C)c2n1
-7%	Cc1ccc(S(=O)(=O)Nc2c(C)n(C)n(-c3ccccc3)c2=O)cc1C(=O)NCc1ccccn1
-5%	CCOCC(=O)Nc1cccc(C(=O)OCC)c1
-9%	Cc1nn(-c2ccc(C(=O)O)cc2)c(N)c1-c1ccccc1
-24%	c1ccc(-c2cn3c(n2)SCC3)cc1
35µM*	COC(=O)C(NC(=O)COc1ccccc1)(Nc1nc2c(s1)CCCC2)C(F)(F)F (stereo not given)
-22%	COc1ccccc1Nc1nc(-c2sc(NC(=O)c3cccc(Cl)c3)nc2C)cs1
-8%	Cc1cccc(C)c1NC(=O)N1CCC(n2cnc3ccccc32)CC1
-8%	Cc1ccc(S(=O)(=O)Nc2cc(C(C)C)c(O)cc2C)cc1

Another view of four compounds above:
| SMILES | HPGD inh |
| --- | --- |
| c1ccc(-c2cn3c(n2)SCC3)cc1 | -24% |
| COC(=O)C(NC(=O)COc1ccccc1)(Nc1nc2c(s1)CCCC2)C(F)(F)F (stereo not given) | 35µM* |
| COc1ccccc1Nc1nc(-c2sc(NC(=O)c3cccc(Cl)c3)nc2C)cs1 | -22% |
| Cc1cccc(C)c1NC(=O)N1CCC(n2cnc3ccccc32)CC1 | -8% |

(more compounds)
HPGD inh	SMILES
-6%	COC(=O)c1ccc(CSC2=NCCS2)cc1
15%	CS(=O)(=O)c1ccc(C2=C(c3ccccc3)C(=O)OC2)cc1
22µM*	CCCS(=O)(=O)c1nnnn1-c1cccc(OC)c1
-2%	Cc1c(NC(=O)CN2C(=O)c3ccccc3C2=O)c(=O)n(-c2ccccc2)n1C
-16%	COc1ccc(NC(=S)c2ccc(N(C)C)cc2)cc1
u	Cc1c(N=Cc2ccc(O)c(Br)c2)cccc1[N+](=O)[O-]
-26%	COc1ccc2nc(SCC(=O)Nc3ccccc3)[nH]c2c1
-3%	CN(C)C(CNC(=O)c1cccs1)c1cccnc1 (stereo not given)
-14%	CCN(CC)S(=O)(=O)c1ccc(N2CCCCC2)c(C(=O)Nc2ccccc2N2CCOCC2)c1
-10%	CCc1sc(C(=O)N2CCN(S(C)(=O)=O)CC2)cc1Br
-6%	Cc1cc(C(F)F)nn1CC(=O)Nc1cc([N+](=O)[O-])ccc1F
-6%	Cc1ccccc1-n1c(SCC(=O)Nc2ccccc2)nc2nc3c(cc2c1=O)CCCC3
-13%	CCNC(=S)N/N=C/c1ccco1
-11%	CCOc1ccccc1NC(=O)CSc1nc2c(c(=O)n1C)SC(C)C2 (stereo not given)
-8%	FC(F)(F)c1nnc2sc(-c3ccccn3)nn12
0%	CCOc1cccc(-c2nc(C(N)=O)c3[nH]c(=O)n(-c4cccc(Cl)c4)c3n2)c1O
-12%	COC(=O)c1cc(C(=O)OC)cc(-n2c(C)cc(C(=O)COC(=O)CNS(=O)(=O)c3ccc(C)cc3)c2C)c1
-8%	CC12CCC3(CO)COC(c4ccccc4O1)C2C3 (stereo not given)
-8%	O=c1c2ccccc2nc(-c2ccc(Br)cc2)n1Cc1ccccc1
u	C=CCn1c(=O)c2ccccc2n2c(SC(C)C(=O)Nc3nc(-c4ccccc4)cs3)nnc12 (stereo not given)
-9%	COC(=O)c1ccc(C(=O)OC)c(NC(=O)CN(C)Cc2cccc(Cl)c2Cl)c1
-7%	CCOC(=O)C1CCN(C(=O)Nc2ccc3oc(C)nc3c2)CC1
-8%	C/C(=N\NC(=O)CNC(=O)C(c1ccccc1)c1ccccc1)c1ccc(C)cc1
u	Cc1cc(=O)n2[nH]c(C)c(-c3ccc(Cl)cc3)c2n1
28µM*	O=C(N/N=C/c1ccc2c(c1)OCO2)c1cc(-c2ccncc2)nc2ccccc12
1%	O=C(CSc1nnc(-c2ccccc2)n1-c1ccc(Cl)cc1)N/N=C/c1ccco1
-13%	O=C(O)c1oc2ccccc2c1CSc1ccccn1
-7%	CCN1CCCC1CNC(=O)C(=O)Nc1ccccc1OC (stereo not given)
-16%	CSc1nc(N2CCOCC2)c2ccccc2n1
-17%	COc1ccc(S(=O)(=O)N2CCOCC2)cc1C(=O)Nc1cc(C)on1
-15%	CCc1nnc(NC(=O)C2CCC2)s1
2%	Cc1nc(Sc2cccn2C)c(C(F)(F)F)c(=O)[nH]1
-8%	COC(=O)[C@H]1[C@@H](C)N(Cc2ccccc2)C(=O)N[C@H]1c1cccc(C(F)(F)F)c1
-9%	COc1ccc(CNC(=O)COC(=O)C2CCN(S(=O)(=O)c3ccccc3C(F)(F)F)CC2)cc1
14µM*	CCc1nnc(NC(=O)CSc2nnnn2-c2cccc(C(=O)OC)c2)s1
-18%	Cc1cc(=O)[nH]c(Sc2c(-c3ccccc3)c3ccccc3[nH]c2=O)n1
-4%	CCOc1ccc(NC(=O)CN(C)c2nnnn2-c2ccccc2)cc1OCC
u	COc1ccc(Oc2nc3ccccc3n3cccc23)cc1

Random excerpt: three compounds from above
HPGD inh	SMILES
-3%	O=C(N/N=C/c1ccncc1)c1nc(-c2ccccc2)n2c1CCCCC2
-3%	CN(C)C(CNC(=O)c1cccs1)c1cccnc1 (stereo not given)
u	C=CCn1c(=O)c2ccccc2n2c(SC(C)C(=O)Nc3nc(-c4ccccc4)cs3)nnc12 (stereo not given)

Some of the compounds tested, so the mix of outcomes need not match the whole.
